Assay outcomes as filed in PubChem.
VDR inh: Inhibitors of the vitamin D receptor (VDR): qHTS. Potency, µM, for the others: max response, negative = inhibition, actives largely listed as inhibitors. 0.93% of 400,000 active. Vitamin D3 receptor (Homo sapiens), P11473. VDR-SRC2-3 peptide fluorescence polarization, 2 h; active = well fitted inhibition curve with a large enough effect; inconclusive = small, poorly fitted or top-dose-only effect, or another doubt; inactive = no such curve, though single readings can be large or run the other way; note: series mostly up to about 120 µM
Target sequence (P11473 whole entry, looked up): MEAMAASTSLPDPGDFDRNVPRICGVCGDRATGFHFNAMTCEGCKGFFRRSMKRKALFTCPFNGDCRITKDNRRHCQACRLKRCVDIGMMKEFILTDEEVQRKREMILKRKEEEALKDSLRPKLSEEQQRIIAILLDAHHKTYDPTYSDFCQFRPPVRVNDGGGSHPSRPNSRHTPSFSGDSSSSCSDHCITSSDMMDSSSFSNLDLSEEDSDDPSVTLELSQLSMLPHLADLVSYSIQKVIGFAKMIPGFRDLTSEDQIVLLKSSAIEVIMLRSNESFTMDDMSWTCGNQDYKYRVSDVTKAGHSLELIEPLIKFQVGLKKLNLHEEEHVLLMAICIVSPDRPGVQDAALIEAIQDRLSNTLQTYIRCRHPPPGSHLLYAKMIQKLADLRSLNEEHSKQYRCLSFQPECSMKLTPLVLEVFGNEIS
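Fluorescence polarization assay of small-molecule disruption of VDR binding to coregulator peptide SRC2-3. Compounds and controls pin-transferred, then read after 2 h incubation at ambient room temperature.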
Active calls of the source: *; ? = inconclusive; [ ] = another dose, or the depositor's remark. % is set by controls: 0 for no effect and ±100 for the full control effect; potency is the fitted concentration of half-maximal effect. These rows are one share of the data; the hit share may differ from the screen's.

VDR inh | SMILES
10% | Cc1cc(NC(=O)Cn2cnc3c(nnn3-c3cccc(F)c3)c2=O)no1
10% | COc1ccc(O)c(C2Nc3ccccc3-n3c(-c4ccccc4)c4c(=O)n(C)c(=O)n(C)c4c32)c1 (centres undefined)
10% | O=C(NC1(C(F)(F)F)NC(=O)N(CC2CCCCC2)C1=O)c1ccco1 (centres undefined)
8% | COc1ccc(-c2cn(-c3ccccc3)nc2CO)cc1
-2% | COc1ccc(/C=C/C(=O)NC(=S)Nc2ccc(S(=O)(=O)Nc3nccnc3OC)cc2)cc1
-2% | CC(C)(C)OC(=O)N[C@@H](Cc1c[nH]c2ccccc12)C(=O)O
-5% | CC[C@]12c3[nH]c4ccc(OC)cc4c3CCN1C(=O)C(CC(=O)NCc1cccc(C(F)(F)F)c1)C[C@@H]2C(=O)N1CCN(C(=O)c2ccco2)CC1 (some centres undefined)
4% | Cc1csc2nc(COC(=O)c3cccc(NC(=O)COc4ccc(Cl)cc4)c3)cc(=O)n12
4% | CCCNC(=O)COC(=O)/C=C/c1ccco1
8% | COc1ccc(CCN(C)C2CCCN(S(=O)(=O)c3ccccc3)C2)cc1OC (centres undefined)
1% | C/C(=N\N1CCN(C)CC1)c1ccc(Cl)c(Cl)c1
-8% | Cc1nc(CNS(=O)(=O)c2ccc3c(c2)OCCO3)cs1
10% | Cc1ccc(S(=O)(=O)Oc2ccc(N3C(=O)C4C5CCC(C5)C4C3=O)cc2)cc1 (centres undefined)
-19% | COc1ccc(Cl)cc1NC(=O)Cn1c(=O)n2nc(C)nc2c2ccccc21
5% | CCC(C)n1c(SCC(=O)Nc2ccccc2C(F)(F)F)nc2ccsc2c1=O (centres undefined)
-15% | O=C(CSc1ncnc2nc[nH]c12)Nc1nnc(SCc2ccc(Cl)c(Cl)c2)s1
1% | Cn1c(=O)oc2cc(S(=O)(=O)NCCN3CCN(c4ccccc4F)CC3)ccc21
12% | COc1ccc(C(=O)Nc2nc3ccc(S(C)(=O)=O)cc3s2)cc1OC
7% | CNC(=O)CCCN1C(=O)c2ccccc2Sc2ncccc21
2% | Cc1nn(CCC(=O)N2CCN(S(=O)(=O)c3ccc(Cl)cc3)CC2)c(C)c1C
22µM* | COc1cc(C2CC(=O)N3CN(Cc4ccccc4)CSC3=C2C#N)ccc1OCc1ccccc1 (centres undefined)
-11% | COc1ccc(C(=O)Nc2cc(C)c3c(=O)oc4ccccc4c3n2)cc1
1% | CCN1CCN(CCCNC(=O)c2ccc3c(Cl)c4c(nc3c2)CCCC4)CC1
10% | CCOc1ncccc1C(=O)OCC(=O)Nc1cc(S(=O)(=O)N2CCCCC2)ccc1Cl
-6% | CN1CCN(CCCN(Cc2cccs2)C(=S)Nc2ccc(Cl)cc2)CC1
6% | COc1ccc2c(c1)sc(=N)n2C
79µM* | COc1ccccc1NC(=O)CSc1nc2c(sc3ccccc32)c(=O)n1CCN(C)C
29% | COc1ccc(-c2nc(-c3cccc(C)c3)nc(N3CCN(C)CC3)c2C#N)cc1
5% | CC(C)CCN1CCC(CN2C(=O)C(=O)NC[C@@H]2Cc2ccccc2)CC1
0% | O=C(CCBr)N1CCN(C(=O)CCBr)CC1
5% | COc1ccccc1OCC(=O)NNC(=O)c1cnccn1
12% | COCCn1c(=NC(=O)c2ccc(S(=O)(=O)N3CCOCC3)cc2)sc2cc(S(N)(=O)=O)ccc21
79µM* | NC(=O)c1ccc(NC(=O)c2cncn2-c2ccccc2)cc1
-5% | Cc1onc(-c2ccccc2)c1C(=O)OCc1nnc(-c2ccccc2)o1
-23% | O=C1CC2(CCN(C(=O)c3ccc(Cl)cc3)CC2)Oc2ccccc21
-26% | CN(C)S(=O)(=O)c1ccc(F)c(C(=O)Nc2ccccc2C(=O)NC2CC2)c1
60%[activator] | CCCCC1(CC)C(=O)NC(=O)NC1=Nc1ccc(OC)cc1 (centres undefined)
? | CC(C)c1nc2scc(-c3ccc(Cl)cc3)c2c(=O)n1N
13% | COc1ccccc1C(=O)NC(=O)Nc1cccc(Cl)c1
-16% | COc1ccc(-c2cn(CCC(=O)O)c(-c3ccncc3)n2)cc1
3% | CC(C)[C@@H](CC(=O)N[C@@H]1CCNC[C@H]1C(=O)N[C@H](CC(=O)N[C@@H](CCC(=O)O)CC(=O)O)Cc1ccccc1)NC(=O)C[C@H](CO)NC(=O)[C@@H]1CNCC[C@H]1N
-5% | COc1ccc(C(CC(=O)O)NC(=O)COc2ccccc2)cc1OC (centres undefined)
4% | O=C(CNS(=O)(=O)c1ccc(F)cc1)N1CCCCCC1
-3% | COc1ccc(-n2c(=O)cc(N3CCCCCC3)[nH]c2=O)cc1
3% | CNC(=S)N1N=C(c2ccc(OC)cc2)CC1c1ccc(Cl)cc1Cl (centres undefined)
0% | CN1C[C@@H]2[C@@H]3C(=O)N(Cc4ccccc4)C(=O)[C@@H]3[C@](Cc3ccccc3)(C1=O)N2C(=O)c1ccc(F)cc1
0% | C=CCNCc1ccc(C(=O)NCCCCCCC)cc1[N+](=O)[O-]
9% | CSc1nnc(C)c(/C=C/Nc2ccc(Cl)cc2)n1
-11% | COc1ccc(-n2c(-c3ccc(C)cc3)cc3c2CC(C)(C)CC3=O)cc1Cl
16% | CCCCN1C(=O)CC(SC2CC(=O)N(CCCC)C2=O)C1=O (centres undefined)
14% | CCOC(=O)c1c(-c2ccc(C)cc2)csc1NC(=O)c1nc(SCC)ncc1Cl
-6% | O=C(Cn1ccccc1=O)Nc1ccc(Cl)c(S(=O)(=O)N2CCCCC2)c1
-1% | CCCc1nnc(SCC(=O)NC2CCCCC2)n1CCOC
0% | O=C(COC(=O)/C=C/c1ccccc1Cl)NC1CCCCCC1
-12% | COc1ccc(OCCCC(=O)Nc2ccc(N3CCCCC3)cc2)cc1
4% | O=C(N/N=C/c1cn(-c2ccccc2)nc1-c1ccc(F)cc1)c1ccc(Br)o1
4% | O=C(Nc1cc(F)cc(F)c1)c1sc(Cl)nc1-c1ccccc1
? | COc1ccc2oc(=O)c(C(=O)Nc3ccccc3C)cc2c1
-11% | O=C(Nc1ccccc1C(=O)Nc1ccccn1)c1ccc([N+](=O)[O-])cc1
25% | CCOC(=O)C1CCCN(C(=O)c2cc(Nc3ccc(OC)cc3)nc3ccccc23)C1 (centres undefined)

Random excerpt: four compounds from above, in no set order.
VDR inh | SMILES
-19% | COc1ccc(Cl)cc1NC(=O)Cn1c(=O)n2nc(C)nc2c2ccccc21
4% | CCCNC(=O)COC(=O)/C=C/c1ccco1
79µM* | COc1ccccc1NC(=O)CSc1nc2c(sc3ccccc32)c(=O)n1CCN(C)C
4% | Cc1csc2nc(COC(=O)c3cccc(NC(=O)COc4ccc(Cl)cc4)c3)cc(=O)n12

4 compounds already listed, ordered by SMILES length, lowest first.
VDR inh | SMILES
6% | COc1ccc2c(c1)sc(=N)n2C
4% | O=C(Nc1cc(F)cc(F)c1)c1sc(Cl)nc1-c1ccccc1
-16% | COc1ccc(-c2cn(CCC(=O)O)c(-c3ccncc3)n2)cc1
-26% | CN(C)S(=O)(=O)c1ccc(F)c(C(=O)Nc2ccccc2C(=O)NC2CC2)c1

Returning to the listing with the two entries that preceded the break.
VDR inh | SMILES
-11% | O=C(Nc1ccccc1C(=O)Nc1ccccn1)c1ccc([N+](=O)[O-])cc1
25% | CCOC(=O)C1CCCN(C(=O)c2cc(Nc3ccc(OC)cc3)nc3ccccc23)C1 (centres undefined)
6% | CCOc1c(Cl)cc(CNc2ccc3[nH]c(=O)[nH]c3c2)cc1OC
1% | COc1cc(Cl)c(S(=O)(=O)N2CC(C)OC(C)C2)cc1Cl (centres undefined)
-3% | CC12CCCC(O)(C1)C1CC(C)(C)C1CC2 (centres undefined)
-3% | COCC(C)n1c(SCC(=O)NNC(=O)c2ccc(F)cc2)nc2ccccc2c1=O (centres undefined)
-23% | CC(C)NC(=O)CS(=O)(=O)c1ccccc1
-12% | COc1ccc(-c2sc(Nc3ccccc3)n[n+]2C)c(C)c1C
-21% | Cc1cc(Nc2ccc(C(=O)O)cc2)n2nc(C)nc2n1
0% | Cc1cc(S(=O)(=O)N2CCN(CC(=O)NCCc3cccs3)CC2)ccc1Br
1% | Cc1cccc(N2CCN(CCNC(=O)C3COc4ccccc4C3)CC2)c1C (centres undefined)
-20% | CCN(CC)CCNC(=O)C(=O)Nc1ccc(C(=O)OC)cc1
-12% | C#CCOCCOCCOCCNc1nc(N2CCN(C(=O)[C@H](CCC(=O)O)n3cc(C(N)CC(C)C)nn3)CC2)nc(N2CCN(C(=O)[C@H](CCC(=O)O)n3cc(C(N)CC(C)C)nn3)CC2)n1 (some centres undefined)
-9% | Fc1c(CSC(=S)N2CCOCC2)cccc1CSC(=S)N1CCOCC1
7% | O=C(CSc1nnc(NC(=O)c2c(F)cccc2F)s1)NC1CCCCC1
-8% | CCOc1cc(C(=O)N(C)CC(=O)Nc2cccc(F)c2)ccc1OCC(=O)N1CCOCC1
-14% | CN(C)CCN(C(=O)CCS(=O)(=O)c1ccccc1)c1nc2c(F)cccc2s1
-9% | CC1CCC2C(C1)c1sc(=O)[nH]c1SC2(C)C (centres undefined)
-23% | CNc1nc(N/N=C/c2cc([N+](=O)[O-])ccc2F)nc(Nc2ccccc2)n1
2% | O=S(=O)(Nc1ccc(-n2cnnn2)cc1)c1cccc(Cl)c1
-1% | O=C(Cc1ccc(-n2cccc2)cc1)N1CCN(c2ccccc2F)CC1
-3% | CC(C)CC(=O)NNC(=S)NCc1ccco1
? | N#Cc1c(NC(=O)c2ccccc2Cl)n(Cc2ccccc2)c2nc3ccccc3nc12
7% | Cc1cccc(-c2noc(-c3ccccc3OCC(=O)Nc3ccc([N+](=O)[O-])cc3)n2)c1
-7% | CCCn1c(SCC(=O)Nc2cccc(C(=O)OC)c2)nnc1-c1cccnc1
-7% | Cc1c(C(=O)NCCC2=CCCCC2)sc2ncnc(N3CCCCC3C)c12 (centres undefined)
-3% | CCOC(=O)c1c(-c2cccs2)csc1NC(=O)COC(=O)c1c(C)noc1C
-6% | COc1ccc([C@H]2CC(=O)C=C(c3ccc(F)nc3)C2)cc1OC
-26% | COc1cccc(C(=O)N2CCC(n3nccc3NC(=O)C3CCOC3)CC2)c1 (centres undefined)
6% | Cc1nn2cc(-c3cccc(Cl)c3)cnc2c1Br
-1% | COc1nsnc1N1CCOCC1
-14% | O=C(CCC(=O)c1cccs1)Nc1ncccc1O

Copied from above, 4 compounds:
VDR inh | SMILES
3% | CNC(=S)N1N=C(c2ccc(OC)cc2)CC1c1ccc(Cl)cc1Cl (centres undefined)
0% | CN1C[C@@H]2[C@@H]3C(=O)N(Cc4ccccc4)C(=O)[C@@H]3[C@](Cc3ccccc3)(C1=O)N2C(=O)c1ccc(F)cc1
0% | C=CCNCc1ccc(C(=O)NCCCCCCC)cc1[N+](=O)[O-]
9% | CSc1nnc(C)c(/C=C/Nc2ccc(Cl)cc2)n1

Next part
VDR inh | SMILES
-17% | C/C(=C\C(=O)c1sccc1Cl)N(C)C
0% | Clc1ccc(-c2c(C3=NCCCN3)nnn2-c2ccc(Cl)cc2)cc1
1% | O=C(C1CC(=O)N(C2CCCCC2)C1)N1CCc2ccccc21 (centres undefined)
30%[activator] | COC(=O)C(C)NC(=O)CNS(=O)(=O)c1ccc(F)cc1 (centres undefined)
-3% | COc1ccc(/C=N/n2c(SC)nnc(C(C)(C)C)c2=O)c(OC)c1
-12% | Cc1cc(=O)oc(C)c1C(=O)N1CCN(C(c2ccccc2)c2ccccc2)CC1
-8% | CCc1nn(CC(=O)N2CCN(c3cccc(C(F)(F)F)c3)CC2)c(=O)c2cccn12
6% | O=C(Cn1cc(SCc2ccccc2F)c2ccccc21)N1CCCCC1
9% | CCOC(=O)c1sc(=S)n(C)c1N
3% | COc1ccc(C(=O)O)cc1Nc1cc(C)nc2ncnn12
1% | Cc1ccc(C)c(-c2nc(Cn3c(=O)cc(-c4ccccc4)c4c(C)nn(C)c43)c(C)o2)c1
13% | CCCNC(=O)NC(=O)COc1ccc2oc3ccccc3c2c1
23% | COc1ccccc1N1CCN(Cc2nc(N)nc(Nc3ccc(C)cc3)n2)CC1
6% | CCOc1ccc(CC(=O)NCCc2cnc[nH]2)cc1
-9% | O=C(NC(=S)N1CCCC1)c1ccccc1F
-13% | CSc1cccc(NC(=O)C2C3C=CC4(O3)C2C(=O)N(CCN2CCOCC2)C4C(=O)NC2CCCCC2)c1 (centres undefined)
-10% | Cc1cc(=O)oc(C)c1C(=O)NCCN(C)Cc1ccccc1
-11% | Cc1ccc(-n2c(SCC(=O)N/N=C/c3ccccc3C(=O)O)nnc2-c2ccc(Cl)cc2)cc1
0% | CCOc1ccc2nc(SCC(=O)Nc3cccc(S(=O)(=O)NC4=NCCCCC4)c3)[nH]c2c1
-21% | Cc1cc(C)c(C(=O)/C=C/C=C/c2ccccc2)c(=O)[nH]1
4% | O=[N+]([O-])c1ccc2c(c1)C(N1CCOCC1)/C(=C/COc1ccc(Cl)cc1Cl)O2 (centres undefined)
-1% | O=C(CCc1ccccc1)Nc1ccc(N2CCCCC2)cc1
0% | Cc1c(C(=O)Nc2ccc(F)cc2F)oc2ccc3c(c12)C(=O)CC(C)(C)O3
4% | CS(=O)(=O)N1CCC(C(=O)N2CCC(Cc3ccccc3)CC2)CC1
-19% | COc1ccc(NS(=O)(=O)c2ccc(C)c(NC(=O)C3CCCO3)c2)cc1 (centres undefined)
-20% | CCCCCCCCCCCCCCCC(=O)OCC1OC(n2ccc(N)nc2=O)C(O)C1O (centres undefined)
-10% | Cc1cc(NC(=O)CSc2nc3ccccc3cc2C#N)no1
1% | COC(=O)[C@@H](NC(=O)CCc1nnc(-c2ccsc2)o1)C(C)C
